# D2 potentiator – positive allosteric modulators of human D2 dopamine receptor | P14416 | DiscoveRx D2 beta-arrestin cells, luminescence, 90 min; 100% = 57 uM dopamine signal | potentiation, % (test concentration not listed) | actives 0.23% (n = 360,000); active = potentiation of 50% or more; inconclusive = 30% to 50%; inactive = 30% or less;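 further: compound concentration not given in the record; tested on top of an EC20 dose of dopamine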
#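 D2 cells co-treated with compound plus 50 nM dopamine (EC20) for 90 min at 37 deg C to detect potentiation. Beta-arrestin recruitment was read as enzyme-fragment luminescence after 1 h at ambient temperature. Full response was set by 57 uM dopamine.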
# ClpP mod – qHTS Assay for Activators of ClpP; purified B. subtilis ClpP, FRET peptide cleavage, 20 min; Potency, µM (highest dose often 57.5 µM), without a hit: at the highest dose activity change, negative = active; actives 1.9% (n = 340,000); AID 651965, 2013; active = well fitted falling curve with a large enough effect; inconclusive = small, poorly fitted or top-dose-only effect; inactive = no such curve, though single readings can be large or run the other way; further: potency means the concentration at half of the fitted maximal effect; the source files actives as falling curves though it sought activators and does not explain the sign; nearly all actives have a fitted effect of over 65% in size; many hits overshoot -100%
# Target sequence (P80244 whole entry, looked up): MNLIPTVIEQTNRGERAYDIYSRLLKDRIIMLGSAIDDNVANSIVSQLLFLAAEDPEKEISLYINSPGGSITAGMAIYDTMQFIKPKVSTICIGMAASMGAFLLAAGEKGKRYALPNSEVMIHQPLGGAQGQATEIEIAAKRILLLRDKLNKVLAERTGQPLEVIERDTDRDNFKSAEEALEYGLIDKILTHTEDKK
#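 Buffer: 100 mM Tris/HCl pH8, 100 mM KCl, 0.05% low protease BSA, 2.5% glycerol, 0.01% Tween-20. ClpP 10 microg/mL final; 20 min RT; delta FRET normalized to ADEP and DMSO controls.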
# Menin MLL FP FL – displaces fluorescein MLL peptide from human menin. 290,000 tested, under 10 active. Fluorescence polarization, fluorescein-MLL peptide displacement from menin. AID 1766. FP activity change, % at 61.4 µM; inconclusive = falling polarisation curve, or a change in total fluorescence; inactive = total fluorescence flat and polarisation flat or rising; no compound was filed as active; the % refers to the polarisation; negative = inhibition;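 further: % of control where 0% means no effect; inhibitors lower the polarisation; unlabelled MLL peptide was the positive control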
# gsp antag – antagonists of gsp mutant (McCune-Albright syndrome); gsp-mutant cells, cAMP HTRF, 30 min; control for the full effect not named in the record; Potency, µM (series often up to 76.9 µM), inactives show at the top dose activity change, negative = inhibition, most hits filed as inhibitors; actives 0.4% (n = 340,000); AID 624288; active = falling curve of any shape with a large fitted effect; inconclusive = falling curve, mostly with a smaller effect; inactive = flat or rising curve; cell line not stated here;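 further: intracellular cAMP measured with PDE inhibitor Ro 20-1724 present during compound exposure; potency means the concentration at half of the fitted maximal effect; on the % scale 0 is the no-effect control and ±100 the full control effect; nearly all actives have a fitted effect of over 65% in size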
#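 HTRF cAMP measurement after 30 min RT detection following 30 min, 37C compound treatment alongside […] (added as 300 uM solution) in G418-selected cells seeded at 2000/well and grown 16–24 h.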
# TRPV1 PAM – potentiators of human vanilloid receptor 1 (TRPV1); AID 540277; potentiation, % at 8.33 µM; actives 0.02% (n = 320,000); Q8NER1; TRPV1-expressing cells, Fluo-8 calcium influx, capsaicin EC20 potentiation; host cell line not named in the record; control for the full effect not named in the record; active means potentiation above 80%; inconclusive means 30% to 80%; inactive means below 30%; further: 0% is about no effect
# Target sequence (Q8NER1 whole entry, looked up): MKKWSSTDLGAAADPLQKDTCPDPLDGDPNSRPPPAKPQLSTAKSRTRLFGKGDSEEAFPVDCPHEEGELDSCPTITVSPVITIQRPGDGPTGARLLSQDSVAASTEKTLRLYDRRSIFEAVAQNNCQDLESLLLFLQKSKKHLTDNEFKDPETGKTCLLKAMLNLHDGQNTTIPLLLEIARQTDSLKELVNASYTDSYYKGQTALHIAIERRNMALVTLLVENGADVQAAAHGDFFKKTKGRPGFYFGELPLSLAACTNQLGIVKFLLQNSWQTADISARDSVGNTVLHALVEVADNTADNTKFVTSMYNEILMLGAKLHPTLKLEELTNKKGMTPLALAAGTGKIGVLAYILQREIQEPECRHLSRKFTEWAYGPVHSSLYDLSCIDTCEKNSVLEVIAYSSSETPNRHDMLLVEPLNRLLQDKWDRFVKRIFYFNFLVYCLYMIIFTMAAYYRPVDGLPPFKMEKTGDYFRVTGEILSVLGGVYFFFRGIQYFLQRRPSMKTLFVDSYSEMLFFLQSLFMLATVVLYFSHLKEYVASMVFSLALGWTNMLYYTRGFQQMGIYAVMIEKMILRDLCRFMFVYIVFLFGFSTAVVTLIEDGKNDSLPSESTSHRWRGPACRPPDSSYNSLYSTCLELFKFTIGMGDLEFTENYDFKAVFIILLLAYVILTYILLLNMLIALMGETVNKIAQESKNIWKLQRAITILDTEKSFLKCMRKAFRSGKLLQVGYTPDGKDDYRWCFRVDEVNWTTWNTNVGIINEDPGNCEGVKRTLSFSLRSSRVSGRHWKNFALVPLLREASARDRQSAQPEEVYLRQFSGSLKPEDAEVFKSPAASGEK
#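 Fluo-8 calcium influx in TRPV1-expressing cells, kinetic read (ex 480/em 520 nm). Compound added and read 3 min for agonist activity, followed by capsaicin at EC20 final and 2 min further read for enhancement.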
# Sfp PPTase inh – Sfp phosphopantetheinyl transferase inhibition; AID 1490; Q9F4F7; actives 3.5% (n = 310,000); Biochemical Sfp PPTase activity, qHTS; Potency, µM, for the others: max response, negative = inhibition, actives largely listed as inhibitors; active means well fitted inhibition curve with a large enough effect; inconclusive means small, poorly fitted or top-dose-only effect, or another doubt; inactive means no such curve, though single readings can be large or run the other way;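 further: the enzyme is Sfp with the accession as filed and its product quenches rhodamine fluorescence; potency means the concentration at half of the fitted maximal effect; 0% = enzyme reaction without inhibitor and -100% = no enzyme wells; top concentration of the series not given in the record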
#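 Reaction rates are the 30-min fluorescence difference (ex 525, em 598 nm) in wells containing 15 nM Sfp, 5 uM rhodamine-CoA and 12.5 uM BHQ-2-YbbR at pH 7.6 with 10 mM MgCl2.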
# gsp agonist – gsp mutant agonism | actives 0.13% (n = 340,000) | Potency, µM (highest dose often 76.9 µM), inactives show top-dose activation (cAMP increase), most hits filed as activators | gsp mutant cells, cAMP HTRF, 30 min; control for the full effect not named in the record; active = well fitted activation curve with a large enough effect; inconclusive = small, poorly fitted or top-dose-only effect, or another doubt; inactive = no such curve, though single readings can be large or run the other way; cell line not stated here;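 further: phosphodiesterase inhibitor Ro 20-1724 added with compounds to block cAMP breakdown; potency means the concentration at half of the fitted maximal effect; nearly all actives have a fitted effect of over 60% in size; about a fifth of the inactives were tested at one dose only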
#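 Cells stably selected in G418 were plated at 2000/well, grown 16-24 hr, then given compounds in DMSO with the PDE inhibitor […] (300 uM solution added) for 30 min at 37C; cAMP was read by HTRF.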
# Starred values were filed as active, the others as inactive; ? = inconclusive; . = not tested or not shown; & = joins results of further samples; [ ] = dose if it differs, or a comment.
molecule,D2 potentiator,ClpP mod,Menin MLL FP FL,gsp antag,TRPV1 PAM,Sfp PPTase inh,gsp agonist
COc1cccc(C(=O)N=c2sc3cc(S(C)(=O)=O)ccc3n2C)c1,-5,.,-3.1,-1%,-8,16%,-5%[15.4 µM]
CCOC(=O)C(CCCOc1cccc(CC)c1)C(=O)OCC,1,-3.1%,-2.3,-8%,-13,2%,-2%
CCOCc1nnc(NC(=O)c2c(-c3ccccc3)noc2C)s1,0,-3.8%,2.0,-4%,8,?,5%[15.4 µM]
Cc1nnsc1-c1c(C(=O)Oc2ccccc2)c(C)nn1-c1ccccc1,1,-1.4%,5.9,-15%,-17,-9%,-4%
COc1ccc(/C=N/n2cnnc2SCCO)cc1OC,-11,-17%,1.9,10%,1,18%,0%
O=C(CN1CCOCC1)Nc1ccc([N+](=O)[O-])cc1,-16,-2.5%,1.5,-6%,-10,8%,-13%
CC(=O)c1ccc(OCCCC(=O)Nc2cc(S(=O)(=O)N3CCCCC3)ccc2C)cc1,-69,.,.,-31%,-7,.,-12%[15.4 µM]
Cc1ccc(C)c(NC(=O)CN(C)C(=O)CC2OC(=O)c3ccccc32)c1 (stereo unspecified),-7,-13%,.,2%,.,.,9%
CCCNC(=O)CSc1nccn1Cc1ccc(OC)cc1,9,.,8.8,1%,10,5%,9%[15.4 µM]
COc1ccc(C(=O)Nc2nc(C)cs2)cc1S(=O)(=O)N1CCCC1,-4,.,0.4,?,-1,-3%,4%[15.4 µM]
CCOC(=O)c1sc(Nc2ccc(F)cc2)nc1C,-4,.,2.6,-1%,-13,10%,?
CCc1ccc(NC(=O)C(C)OC(=O)CCC(=O)c2cccs2)cc1 (stereo unspecified),-28,-1.5%,3.8,3%,10,28%,4%
CC(C)Cn1c(SCC(=O)Nc2cc(Cl)c(Cl)cc2Cl)nc(O)cc1=O,-10,-7.3%,.,-19%,-4,.,16%[15.4 µM]
CC(=O)Oc1ccc2ccc3ccc(C(C)=O)cc3c2c1,-9,.,.,-5%,.,.,1%
CC(Oc1ccc(Cl)cc1Cl)C(=O)NC(=S)N1CCc2ccccc21 (stereo unspecified),-6,-2.8%,0.3,3%,-5,17%,-11%
Cc1c(C(c2cccs2)c2c(C)n(C)n(-c3ccccc3)c2=O)c(=O)n(-c2ccccc2)n1C,-7,-0.9%,1.7,1%,-6,15%,-17%[15.4 µM]
Cc1ccc2c(cnn2C(=O)CCCC(=O)NCc2ccc(Cl)cc2)c1,-8,-7.8%,1.2,7%,2,12%,0%
Cc1nnc(SCc2cccc([N+](=O)[O-])c2)[nH]c1=O,-1,.,1.3,-6%,-12,7%,-18%
Cc1ccc2c(COC(=O)C3=COCCO3)cc(=O)oc2c1,-11,-19%,3.2,-2%,-9,11%,-12%[15.4 µM]
COc1ccc(CNc2nc3c(c(=O)[nH]c(=O)n3C)n2Cc2ccccc2C)cc1,-3,-1.2%,0.2,9%,-10,3%,-32%[inhibitor]
CCc1nc(SCC(=O)NC2CCCC2)c2c(=O)n(C)c(=O)n(C)c2n1,-15,-1.9%,-3.5,-1%,3,1%,-20%
S=C(NC1CCCCC1)NC1CC2C=CC1C2 (stereo unspecified),-11,.,-0.3,10%,-18,19%,4%
Cc1cc2c(cc1S(=O)(=O)NCc1ccccc1)OCC(=O)N2,4,0.2%&-0.2%,7.4,13%,1,-2%,14%
CN(Cc1ccccc1)C(=O)c1cccc(NC(=O)Cc2ccc(NC(=O)C3CCCN(C(=O)C4CCC4)C3)cc2)c1 (stereo unspecified),0,1.6%,.,8%,.,.,.
Cc1ccc(C(=O)N/C(=C\c2cccs2)C(=O)NCCCN2CCOCC2)cc1,6,.,-5.9,.,?,16%,-15%[15.4 µM]
COC(=O)c1ccc(Nc2c([N+](=O)[O-])c(=O)oc3ccccc23)cc1,-10,.,2.2,-13%,11,19%,-6%[15.4 µM]
Cc1ccc2c(c1)=C(c1ccccc1)N(O)CC(=O)N=2,-7,-0.6%,-21,4%,-13,1%,-11%[15.4 µM]
Cc1oc(-c2ccccc2)cc1C(=O)Nc1cccc(/C=C\C(=O)O)c1,5,.,2.9,-12%,0,-2%,2%
O=C(Nc1ccnn1C1CCN(Cc2cccc(OCCO)c2)CC1)C1CC1,-5,-1.0%,.,6%,-16,14%,4%[15.4 µM]
COc1ccc(C2/C=C\CN(S(=O)(=O)c3ccc(-c4ccccc4)cc3)CC(=O)N2Cc2ccc(F)cc2)cc1 (stereo unspecified),-1,-0.6%,2.6&3.2,2%,28,6%&10%,.
CCC(CO)Oc1cc(NCc2ccc(Cl)cc2Cl)c2ncn(C(C)C)c2c1 (stereo unspecified),-17,-4.6%,.,-6%,.,.,18%
CCOc1cc(C(=O)NC(=S)Nc2cccnc2)cc(OCC)c1OCC,-24,3.2%,-1.6,-1%,25,?,-1%
COc1ccc(C(=O)COC(=O)CNC(=O)c2ccccc2)cc1F,-9,-0.3%,.,-1%,-7,.,-38%[inhibitor]
Cc1ccc(OCc2nnc(SCC(=O)N3CCOCC3)n2C)cc1,-10,-0.1%,2.3,1%,-8,0%,-25%
Cc1ccc(N(NC(=O)C(C)(C)O)C(=O)c2ccccc2)cc1C,-3,-3.5%,-2.7,-2%,10,7%,10%
O=S(=O)(c1ccc(NC(=S)Nc2ccc(OC(F)F)cc2)cc1)N1CCOCC1,-8,-1.5%,0.8,5%,3,-4%,18%
O=C(CSc1nc2ccccc2o1)c1cc2ccccc2oc1=O,11,?,5.1,-6%,?,5%,13%
N#CC(C#N)=C(Nc1ccccc1)c1ccccc1,-1,.,-0.2,12%,-2,-11%,13%[15.4 µM]
O=C(c1ccco1)N1CCN(Cc2ccccc2Br)CC1,?,-1.6%,0.7,6%,12,?,23%
CCCCC(=O)c1c(C)cc(C)[nH]c1=O,21,-9.1%,-1.0,0%,-8,5%,?
COC(=O)CNC(=O)c1sc2ncn(CC(=O)Nc3ccc(C)c(Cl)c3)c(=O)c2c1C,-26,-1.0%,6.6,-3%,18,8%,4%
O=C(N/N=C/c1ccsc1)c1cc(-c2ccncc2)nc2ccccc12,-6,-1.0%,2.8,8%,2,34%,6%
COc1ccc(OC)c(N(CC(=O)Nc2cccnc2)S(C)(=O)=O)c1,-3,0.4%,2.0,9%,-1,10%,?
O=C(O)c1cc2nc3c(c(C(F)(F)F)n2n1)CCc1ccccc1-3,-6,-2.0%,-2.6,0%[15.4 µM],-8,10%,28%
Cc1cc(-c2ccccc2)nc(-c2ccccc2)c1C,-2,.,?,.,-12,-5%,23%[15.4 µM]
COc1ccc(-n2c(C)c(C(C)=O)c(C(C)=O)c2C)cc1,-8,1.9%,0.6,-2%,-7,15%,17%
O=C(Nc1cc(C(F)(F)F)ccc1-n1cncn1)c1cn2ccccc2n1,-4,-16%,.,-1%,.,.,?
CCOC(=O)c1c(NC(=O)CSc2nnc(C)s2)sc2c1CCC(CC)C2 (stereo unspecified),-9,-6.9%,1.2,-26%,11,-3%,-4%
Cc1ccc(CNC(=O)N2CCN(c3ccc(C)cc3)CC2)cc1,-8,0.4%,0.1,8%,-23,8%,-5%[15.4 µM]
Cn1cc(C(=O)N/N=C/c2cccc([N+](=O)[O-])c2)c2ccccc21,-9,.,2.7,-7%,-15,13%,4%[15.4 µM]
Cc1ccc(/C(O)=C2\C(=O)C(=O)N(CC(C)O)C2c2ccccn2)cc1 (stereo unspecified),-4,-2.4%,-0.9,3%,4,-10%,17%[15.4 µM]
C=CCOc1ccc(-c2nc3c(c(=O)[nH]c(=O)n3CCC)n2CCCC)cc1,6,.,0.6,.,-6,15%,12%[15.4 µM]
O=C(Nc1ccc(Cl)cc1)c1ccc(-c2ccccn2)s1,-11,.,1.0,-5%,-5,13%,1%[15.4 µM]
O=C(COc1ccc(Cl)cc1)Nc1cccc(S(=O)(=O)NCc2ccco2)c1,0,0.6%,.,-24%,23,.,8%
O=C(CN1CCCCCC1)Nc1nc2ccccc2s1,-7,.,.,17%,.,.,-51%
COc1cccc(CC(NC(C)=O)C(=O)NC2CCN(C(=O)C3CC3)CC2)c1OC (stereo unspecified),3,0.1%,1.1,10%,0,26%,-28%
O=C(COc1cc(F)ccc1[N+](=O)[O-])NCC1CCCO1 (stereo unspecified),0,1.9%,.,2%,.,.,0%
NC(=O)Cc1ccc2sc(-c3ccccc3)nc2c1,-6,-18%,1.0,-10%,-6,-15%,-44%[inhibitor]
O=C(Sc1ccccc1)c1cccc(Cn2cc(C(F)(F)F)ccc2=O)c1,1,.,-1.2,-1%,4,-1%,1%[15.4 µM]
COc1ccc(Cl)cc1S(=O)(=O)N1CCC(C(=O)NC2CC2)CC1,-9,-0.7%,.,0%,-1,14%,21%[15.4 µM]

# (list continues)
molecule,D2 potentiator,ClpP mod,Menin MLL FP FL,gsp antag,TRPV1 PAM,Sfp PPTase inh,gsp agonist
CCc1nnc(NC(=O)Cc2sc(C)nc2-c2ccc(C)cc2)s1,-1,.,-4.0,-31%,-6,16%,3%[15.4 µM]
COc1ccc(NS(=O)(=O)c2ccc(N3CCOCC3)c(NC(=O)c3ccccc3Br)c2)cc1,-5,.,2.5,-16%,11,6%,-31%[15.4 µM]
NC(=O)c1ccc[n+](CC(=O)NCc2ccc(Cl)cc2)c1,-5,0.7%,-2.5,10%,-4,19%,-7%[15.4 µM]
COc1cc(OC)cc(C2=NCCN2)c1,-6,.,0.3,5%,7,20%,-7%
Cc1ccc(-c2nn(CC(=O)NCc3ccco3)c(=O)c3ccccc23)cc1,-24,-1.8%,-1.0,1%,-22,?,-26%
CC1(C)C2CCC1(C)C(OC(=O)C[n+]1ccccc1N)C2 (stereo unspecified),-5,4.1%,-2.8,7%,0,4%,22%
COc1ccc(-c2nnc(SCc3ccccn3)n2C)cc1,-4,0.2%,2.8,32%,-6,14%,-5%
COc1cc(/C=C/C(=O)NCCn2c(C)cc3ccccc32)cc(OC)c1OC,4,2.1%,-0.1,-17%,8,5%,2%
O=C(Nc1ccccc1)c1nc2ccccc2s1,-8,.,.,-6%,-2,4%,-55%[inhibitor]

# Compound activity: PubChem BioAssay, National Center for Advancing Translational Sciences (NCATS)
